CHOP UPR activ – activators of apoptotic arm of unfolded protein response (CHOP) | CHO-CHOP luciferase reporter, UPR activation, luminescence; percent of tunicamycin response over DMSO baseline | activation, % at 10 µM | actives 0.34% (n = 330,000) | AID 449763;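 active = at 10 µM dose, activation of 40% or more, normalized to positive control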;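 note: 100% = tunicamycin at 10 µg/mL and 0% = DMSO alone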
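Assay system: CHO cells with stable CHOP pathway luciferase reporter; Buffer or medium: F12 plus 10% serum; Times: 16-18 h cell attachment, then 6 h compound exposure, 37 °C; Signal: luciferase luminescence; Read-out basis: percent activation relative to tunicamycin control; Control set: tunicamycin high control, DMSO low control.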
UPR XBP1 act – activators of adaptive arm of unfolded protein response (XBP1). CHO-XBP1 luciferase reporter, IRE1-XBP1 UPR activation, luminescence; percent of tunicamycin response, DMSO as zero. actives 0.33% (n = 330,000). activation, % at 20 µM;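 active = versus positive control, 20 µM dose yields 30% or more activation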;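 note: 100% = tunicamycin at 10 µg/mL and 0% = DMSO only wells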
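assay system = CHO-XBP1 luciferase reporter cells | amount = 1000 cells/well | buffer or medium = F12 plus 10% FBS | compound dosing = single point, 20 µM final compound, 1% DMSO | incubation = 16-18 h cell attachment at 37 °C, then 6 h compound exposure | detection = Steady-Glo luminescence read | controls = tunicamycin 10 µg/mL and vehicle-only wells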
APJ agonist – activates the human apelin receptor APJ; P35414; CHO-K1 APJ PathHunter beta-arrestin, luminescence; 0% DMSO wells, 100% apelin; activation, % at 20 µM; actives 0.11% (n = 330,000);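 active = activation more than six SD over the plate average, tested at 20 µM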;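 note: 0% = DMSO alone and 100% = apelin-13 at 10 nM; some results filed as inactive read as strong as hits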
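Assay system: engineered CHO-K1 APJ arrestin reporter cells; Amount: 1000 CHO-K1 reporter cells seeded per well; Dosing: one dose, 20 µM compound, 1% DMSO; Times: compound stimulation 90 min at 25 °C, detection 60 min; Measured by: luminescent beta-gal fragment complementation, chemiluminescent substrate; Read-out: APJ–arrestin association signal; Controls: DMSO vs Apelin-13 10 nM.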
CXCR6 block – blocks human CXCR6 beta-arrestin recruitment. AID 602244. CHO-K1 PathHunter CXCR6 beta-arrestin, luminescence. O00574. inhibition, % at 20 µM. actives 0.36% (n = 360,000); in the data active = inhibition above about 34%, passing the limit was not always enough;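 note: antagonist mode with CXCL16 agonist at 10 nM final; 0% = 10 nM CXCL16 with DMSO and 100% = unstimulated wells without agonist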
Target sequence (O00574 whole entry, looked up): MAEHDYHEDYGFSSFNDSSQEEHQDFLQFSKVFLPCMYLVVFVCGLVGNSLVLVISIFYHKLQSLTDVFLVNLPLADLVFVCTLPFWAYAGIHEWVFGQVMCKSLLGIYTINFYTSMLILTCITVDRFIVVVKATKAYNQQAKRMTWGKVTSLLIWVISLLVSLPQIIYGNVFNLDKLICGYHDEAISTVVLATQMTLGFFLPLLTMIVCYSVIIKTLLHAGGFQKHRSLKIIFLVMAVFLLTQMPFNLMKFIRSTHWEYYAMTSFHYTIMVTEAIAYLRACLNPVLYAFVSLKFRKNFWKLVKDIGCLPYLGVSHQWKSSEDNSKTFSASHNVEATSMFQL
EBI2 block – EBI2 (human) antagonism; P32249; EBI2 beta-arrestin recruitment, luminescence, 7a,25-OHC stimulated; inhibition, % at 5 µM; actives 0.81% (n = 360,000); AID 651636; in the data active = inhibition above about 38%;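 note: enzyme fragment complementation signal reports receptor beta-arrestin coupling in cells; 0% = agonist plus DMSO wells and 100% = wells without agonist; some results beyond the cut were filed as inactive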
Target sequence (P32249 whole entry, looked up, the tested form may be a part): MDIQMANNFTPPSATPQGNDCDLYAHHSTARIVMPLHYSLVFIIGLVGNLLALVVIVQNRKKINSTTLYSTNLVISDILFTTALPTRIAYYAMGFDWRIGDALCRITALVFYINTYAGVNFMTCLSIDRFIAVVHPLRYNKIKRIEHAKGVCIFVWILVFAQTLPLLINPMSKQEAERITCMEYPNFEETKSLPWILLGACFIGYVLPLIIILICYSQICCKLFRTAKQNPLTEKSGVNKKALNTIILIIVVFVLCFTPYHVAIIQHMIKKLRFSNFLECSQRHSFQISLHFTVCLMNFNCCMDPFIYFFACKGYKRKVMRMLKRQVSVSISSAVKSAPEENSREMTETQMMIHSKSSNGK
CCR6 antag – CCR6 (human) receptor antagonism; P51684; CHO-K1 CCR6 PathHunter beta-arrestin, luminescence, CCL20-stimulated; inhibition, % at 20 µM; actives 0.49% (n = 340,000);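 active = compounds whose inhibition of the agonist-driven luminescence signal at 20 µM reaches about 50%, limit read from the data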;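 note: cells stimulated with CCL20 at 14 nM final; plate controls were DMSO with CCL20 for no effect and DMSO without agonist for full effect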
APJ antagonist – blocks the human apelin receptor APJ; P35414; CHO-K1 APJ beta-arrestin complementation, luminescence; inhibition, % at 20 µM; actives 0.32% (n = 330,000);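 active = inhibition above about 40% at 20 µM, limit read from the data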;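 note: cells challenged with 10 nM apelin-13 agonist together with compound; plate controls were apelin-13 plus DMSO wells for no effect and DMSO wells lacking apelin-13 for full effect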
Starred values were filed as active, the others as inactive; nt = not tested or not shown; & = joins results of further samples. This is a subset; count on the stated rates, not on these rows.

Screens by letter – A = CHOP UPR activ; B = UPR XBP1 act; C = APJ agonist; D = CXCR6 block; E = EBI2 block; F = CCR6 antag; G = APJ antagonist
[1] Cc1nn(Cc2ccc(Cl)cc2Cl)c(C)c1NC(=O)NC12CC3CC(CC(C3)C1)C2
  A: 0.8; B: -1; C: 0; D: 12; E: 9; F: 21; G: -8
[2] COc1cccc(N2CCN(CC(=O)Nc3ccc(-n4cnnn4)cc3)CC2)c1
  A: -0.9; B: 0; C: 0; D: 1; E: -9; F: -1; G: -6
[3] Nc1ccn([C@@H]2O[C@H](CO)[C@@H](O)[C@@H]2O)c(=O)n1
  A: nt; B: nt; C: nt; D: 4; E: 4; F: -4; G: nt
[4] COc1ccc(N(CC(=O)N2CCCCCC2)S(C)(=O)=O)cc1Cl
  A: 1.2; B: -3; C: -2; D: -6; E: -4; F: 12; G: -11
[5] CN(C)CCOC(c1ccccc1)c1ccccc1
  A: 2.6&-0.1; B: -4&-3; C: -4&-2; D: 3&5; E: -2&1; F: 11&6; G: 25&-2
[6] COc1cccc2c1C(=O)c1c(O)c3c(c(O)c1C2=O)C[C@](O)(C(C)=O)C[C@H]3O[C@@H]1C[C@@H](N)[C@@H](O)[C@@H](C)O1
  A: -5.8; B: -7; C: 17; D: 13; E: -10; F: 18; G: -14
[7] CN[C@H]1CC[C@@H](c2ccc(Cl)c(Cl)c2)c2ccccc21
  A: 0.9; B: 3; C: -2; D: -2&1; E: -1&0; F: 29&26; G: 9
[8] Cc1nnc(NC(=O)CCS(=O)(=O)c2ccccc2)s1
  A: -1.7; B: -5; C: 0; D: -7; E: -6; F: 10; G: 9
[9] Cc1nn(-c2ccccc2)c(C)c1NC(=O)COc1ccc2ccccc2c1
  A: -2.5; B: 1; C: 0; D: -14; E: 23; F: -7; G: 26
[10] c1ccc2c(-c3ccncc3)c[nH]c2c1
  A: -1.5; B: 0; C: -2; D: -15; E: -17; F: -4; G: -13
[11] CC(C)(C)c1ccc(-n2ncc3c2CCCC3NC(=O)CCN2CCCC2=O)cc1 (stereo not given)
  A: 5.9; B: -6; C: 5; D: -8; E: 0; F: 17; G: 8
[12] COc1nc(/C(N)=N/O)nc(N2CCCCC2)n1
  A: -1.4; B: 3; C: 3; D: 0; E: -3; F: -12; G: 16
[13] Cc1ccc(C)c(N2CCN(C(=O)CCCn3ncn4c(cc5occc54)c3=O)CC2)c1
  A: -0.3; B: -4; C: -3; D: -10; E: 9; F: 13; G: -14
[14] CC(C)(C(=O)O)c1ccc([C@H](O)CCCN2CCC(C(O)(c3ccccc3)c3ccccc3)CC2)cc1
  A: 0.2; B: -5; C: 5; D: 2; E: -1; F: 1; G: -8
[15] CN1[C@@H]2CC[C@H]1CC(OC(=O)[C@H](CO)c1ccccc1)C2 (stereo not given in full)
  A: -2.0; B: -8; C: -6; D: 3; E: 5; F: -5; G: 11
[16] CC(=O)c1cccc(N(C(=O)c2ccccn2)C(C(=O)NC2CCCCC2)c2cccs2)c1 (stereo not given)
  A: -0.2; B: -2; C: 2; D: -2; E: 1; F: 1; G: -1
[17] CN1[C@@H]2CC[C@H]1CC(OC(=O)C(CO)c1ccccc1)C2 (stereo not given in full)
  A: 1.1; B: -7; C: -3; D: -7; E: -1; F: 9; G: 0
[18] C[C@H]1O[C@@H](O[C@H]2[C@@H](O)C[C@H](O[C@H]3[C@@H](O)C[C@H](O[C@H]4CC[C@@]5(C)[C@H](CC[C@@H]6[C@@H]5C[C@@H](O)[C@]5(C)[C@@H](C7=CC(=O)OC7)CC[C@]65O)C4)O[C@@H]3C)O[C@@H]2C)C[C@H](O)[C@@H]1O
  A: -1.6&-0.2; B: -9&-5; C: -4&0; D: -2; E: -6; F: -8; G: -3&9
[19] c1cnc2c(c1)ccc1cccnc12
  A: 0.3&-0.5; B: 1&-5; C: -3&-2; D: -8&0; E: -6&1; F: -13&-11; G: -1&-1
[20] O=C(NC1CCCCC1)C(c1ccco1)N(CCc1ccccc1)C(=O)C(F)(F)F (stereo not given)
  A: -0.9; B: -2; C: 4; D: 6; E: 5; F: 13; G: 11

Gathered by group, those above containing sulfur
Screens by letter – A = CHOP UPR activ; B = UPR XBP1 act; C = APJ agonist; D = CXCR6 block; E = EBI2 block; F = CCR6 antag; G = APJ antagonist
[4] COc1ccc(N(CC(=O)N2CCCCCC2)S(C)(=O)=O)cc1Cl
  A: 1.2; B: -3; C: -2; D: -6; E: -4; F: 12; G: -11
[8] Cc1nnc(NC(=O)CCS(=O)(=O)c2ccccc2)s1
  A: -1.7; B: -5; C: 0; D: -7; E: -6; F: 10; G: 9
[16] CC(=O)c1cccc(N(C(=O)c2ccccn2)C(C(=O)NC2CCCCC2)c2cccs2)c1 (stereo not given)
  A: -0.2; B: -2; C: 2; D: -2; E: 1; F: 1; G: -1

Single values from the entries so far.
entry 11 – CHOP UPR activ: 5.9
entry 16 – CXCR6 block: -2

(listing goes on)
Screens by letter – A = CHOP UPR activ; B = UPR XBP1 act; C = APJ agonist; D = CXCR6 block; E = EBI2 block; F = CCR6 antag; G = APJ antagonist
[21] O=C(Nc1ccccc1C(=O)Nc1nnc(C(F)(F)F)s1)c1ccccc1Cl
  A: 6.6; B: -1; C: -1; D: 4; E: 4; F: -3; G: 3
[22] Clc1ccc(CN(Cc2ccc(Cl)cc2)c2nn[nH]n2)cc1
  A: -1.3; B: 0; C: -4; D: 5; E: 8; F: 13; G: 13
[23] O=C(Nc1nc(-c2ccccc2)cs1)c1ccc2c(=O)n3c(nc2c1)CCCCC3
  A: 4.2; B: 2; C: -2; D: 11; E: 10; F: 10; G: 3
[24] CC1CCCC(NC(=S)Nc2ccc(SC(F)F)cc2)C1C (stereo not given)
  A: -2.5; B: 4; C: 2; D: -18; E: 7; F: 24; G: -22
[25] COc1ccc(NS(=O)(=O)c2cc(C)ccc2NC(=O)c2cc(C)oc2C)cc1
  A: -0.9; B: 22; C: -2; D: 0; E: 1; F: 4; G: -1

Three of the entries above in order of the EBI2 block value, low to high.
item | SMILES | UPR XBP1 act | CXCR6 block | EBI2 block | CCR6 antag | APJ antagonist
24 | CC1CCCC(NC(=S)Nc2ccc(SC(F)F)cc2)C1C (stereo not given) | 4 | -18 | 7 | 24 | -22
22 | Clc1ccc(CN(Cc2ccc(Cl)cc2)c2nn[nH]n2)cc1 | 0 | 5 | 8 | 13 | 13
23 | O=C(Nc1nc(-c2ccccc2)cs1)c1ccc2c(=O)n3c(nc2c1)CCCCC3 | 2 | 11 | 10 | 10 | 3

Screening data from PubChem BioAssay.
